Assay outcomes from PubChem.
HPGD inh: HPGD (human) dehydrogenase inhibition | Potency, µM, inactives show top-dose activity change, negative = inhibition, most hits filed as inhibitors | 150,000 tested, 4.3% active | AID 894 | P15428 | purified HPGD, NADH fluorescence kinetic, PGE2 substrate; active = well fitted inhibition curve with a large enough effect (not every such curve was filed as active); inconclusive = small, poorly fitted or top-dose-only effect, or another doubt; inactive = no such curve, though single readings can be large or run the other way;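 further: top concentration of the series not given in the record; plate controls included wells without enzyme; inactives centre near -10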
Target sequence (P15428 whole entry, looked up): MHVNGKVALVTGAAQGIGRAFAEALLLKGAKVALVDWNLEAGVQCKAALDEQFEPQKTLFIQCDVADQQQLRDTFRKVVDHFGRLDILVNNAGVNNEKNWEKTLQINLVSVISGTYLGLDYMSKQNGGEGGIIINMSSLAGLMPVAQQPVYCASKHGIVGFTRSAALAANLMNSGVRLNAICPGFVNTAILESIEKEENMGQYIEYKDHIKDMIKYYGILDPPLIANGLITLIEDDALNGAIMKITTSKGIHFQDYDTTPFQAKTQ
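20 nM HPGD preincubated 15 min at room temperature with compound in 50 mM Tris-HCl pH 8, 0.01% Tween 20. Started with 1 mM NAD+ and 30 uM prostaglandin E2; NADH fluorescence (360/450 nm) read 5 times over 30-s intervals, last minus first.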
Numbers without * were called inactive; i = inactive; ? = inconclusive. On the % scale 0 is the no-effect control and ±100 the full control effect; potency means the concentration at half of the fitted maximal effect. This is a subset (hit frequency here may not be typical).

HPGD inh	SMILES
-22%	COC(=O)C1=C(C)N=C2SC(C#N)=C(N)N2C1c1ccc(OCc2ccccc2)cc1 (configuration not stated)
-2%	Cc1ccc(N(CC(O)CN2CCCC2)S(=O)(=O)c2ccccc2)cc1 (configuration not stated)
-1%	Cc1ccc(CNC(=O)CSc2nc3[nH]ncc3c(=O)[nH]2)cc1
?	Cc1ccc(-c2cc(-c3ccc(Cl)cc3)c(C#N)c(N)n2)o1
-7%	O=C(NNC(=O)c1cccnc1)Nc1ccc(Cl)c(Cl)c1
-4%	Cc1ccc2c(C)c(C(=O)Nc3c(C)n(C)n(-c4ccccc4)c3=O)oc2c1C
?	Cc1ccc(-c2nn3c(C)nnc3c3ccccc23)cc1S(=O)(=O)N1CCN(CCO)CC1
-5%	O=C(CN1CCCc2ccccc21)NC(=O)NCc1ccco1
?	CCSc1nnc(NC(=O)CSc2nc(CC)nc3c2c(=O)n(C)c(=O)n3C)s1
-6%	COc1ccc(CCN(C(=O)C(F)(F)F)C(C(=O)NC2CCCC2)c2cccs2)cc1 (configuration not stated)
-5%	CCCN1C(=O)/C(=C/c2nc3ccccc3c(=O)[nH]2)c2ccccc21
0%	Cc1cc(OC(C)C)nc(-c2ccccc2O)n1
-10%	C[Si](C)(C/C=C/CC[C@H](O)C1=CCCCC1=O)c1ccccc1
-4%	CC(C)(C)OC(=O)NCCCC1=CC2=CC(=O)C(C)(OC(=O)c3cccs3)C(=O)C2=CO1 (configuration not stated)
-20%	CCOc1cc(C(=O)Nc2ccc(F)cc2)cc(Br)c1OC
?	COc1ccccc1-n1nnnc1SCc1cc2c(cc1Br)OCO2
-21%	CCOC(=O)c1c(NC(=O)C2=C(C)NC(=S)NC2c2ccc(F)cc2F)sc(C)c1C (configuration not stated)
?	CCC(=O)OCN1C(=O)C=CC1=O
-26%	CCOC(=O)N1CCC(NC(=O)c2cc(C(=O)NCc3ccc(F)cc3)ccc2CO)CC1
-22%	Cc1ccc(S(=O)(=O)c2nc(Nc3ccccc3N3CCOCC3)sc2Cl)cc1
-29%	O=C(NC(Cc1cc(=O)[nH]c2ccccc12)C(=O)O)c1ccc(Cl)cc1 (configuration not stated)
-6%	CCOc1ccc(-c2[nH]nc3c2C(c2cccnc2)C(C#N)=C(N)O3)cc1 (configuration not stated)
-1%	Cc1ccc(NC(=O)c2ccc(OCC3CCCO3)cc2)c(C)c1 (configuration not stated)
-8%	COc1ccc(Cl)cc1Nc1nc(N)nc(C(F)(F)F)n1
-21%	O=c1oc(Nc2cccc(F)c2)nc2ccccc12
-11%	N#Cc1nc(Cc2cccc3ccccc23)oc1NCCCn1ccnc1
-17%	CC(C)=C1SC(N2CCN(c3cccc(C)c3)CC2)=NC1=O
3%	O=C(COC(=O)/C=C/c1ccc(S(=O)(=O)N2CCCCCC2)cc1)NCc1ccccc1Cl
-6%	O=C(Nc1ccccc1)Nc1ccc(Cl)c([N+](=O)[O-])c1
-9%	CC(=O)OC1CC2C(C)(C)C(=O)CC[C@]2(C)C2CC[C@@]3(C)C(c4ccoc4)OC(=O)C4OC43[C@]12C (some centres not stated)
-3%	CCN1C(=O)NC2C1N(S(C)(=O)=O)CCN2S(C)(=O)=O (configuration not stated)
-8%	COc1cc2c(C(=O)NCc3ccc4c(c3)OCO4)cn(C)c(=O)c2cc1OC
-21%	Cc1ccc(Cl)cc1N1CCN(C(c2ccc(C#N)cc2)c2nnnn2C2CCCC2)CC1 (configuration not stated)
?	CCOc1cc2[nH]c(=S)n(Cc3ccc(C(=O)NCCOC)cc3)c(=O)c2cc1OCC
-4%	CC(C)(C)c1cc[n+](-c2nc([O-])sc2C=O)cc1
-8%	CCOc1ccc(C(=O)NC(C(=O)NCc2ccccn2)C(C)C)cc1 (configuration not stated)
?	CCOc1ccc(S(=O)(=O)NCc2ccc(F)cc2)c2cccnc12
-7%	O=C(OCC(=O)N(C1CCCCC1)C1CCCCC1)c1cnccn1
-8%	Cc1ccccc1N1CCN(S(=O)(=O)C[C@]23CCC(CC2NC(=O)[C@@H](N)CCS(C)(=O)=O)C3(C)C)CC1 (some centres not stated)
-17%	Cc1nn(Cc2ccccc2Cl)c2sc(C(=O)NC(C)(C)C)cc12

Pulled one by one from above (two):
HPGD inh	SMILES
-1%	Cc1ccc(NC(=O)c2ccc(OCC3CCCO3)cc2)c(C)c1 (configuration not stated)
-8%	CCOc1ccc(C(=O)NC(C(=O)NCc2ccccn2)C(C)C)cc1 (configuration not stated)

Remaining list, next part.
HPGD inh	SMILES
-2%	CC(C(=O)N1CCN(c2ccccc2)CC1)N1C(=O)C2CC=CCC2C1=O (configuration not stated)
-8%	CCCCC1=CC2=CC(=O)C(C)(OC(=O)CC)C(=O)C2=CN1C(CO)CO (configuration not stated)
-7%	CC(C)C(=O)Nc1ccc(C(=O)NNC(=O)CCCOc2ccc(Cl)cc2Cl)cc1
-5%	CC(=O)c1c(C(C)=O)c(C)n(Cc2ccc3c(c2)OCO3)c1C
-13%	CCCCOC(=O)Nc1nnc(CC)s1
-30%	COc1ccc2cc(CCNC(=O)C(C)(C)C)c(=O)[nH]c2c1
-14%	CCOC(=O)C(NC(=O)CC)C(O)c1cccc([N+](=O)[O-])c1 (configuration not stated)
-10%	O=C(CSc1ncn(-c2ccccc2)n1)NCc1ccccc1
?	CCCNc1ccc(S(=O)(=O)N(CC)CC)cn1
-10%	CCCN(CCC)c1nc(N)nc(-c2cc(Cl)ccc2OC)n1
-13%	CNC(=S)NNC(=O)c1cccn(Cc2ccc(Cl)cc2Cl)c1=O
-11%	CCCC/C(O)=C1\C(=O)CC(C)(C)CC1=Nc1ccccc1OC
-15%	C/C(=C\c1ccco1)C1C(C#N)=C(N)Oc2n[nH]c(-c3ccc(C)cc3)c21 (configuration not stated)
-7%	O=C1NC(c2ccncc2)C(C(=O)c2cccs2)C(O)(C(F)(F)F)N1 (configuration not stated)
-10%	COC(=O)c1cccc(NC(=O)c2cccnc2)c1
-8%	Cc1oc2c(C)c(O)ccc2c(=O)c1-c1cnn(-c2ccccc2)c1
0%	COCCN(C(=O)Cn1nnc2ccccc21)C(C(=O)NC1CCCCC1)c1ccc(OC)cc1OC (configuration not stated)
-7%	CS(=O)(=O)N(CC(=O)NCCC1=CCCCC1)c1ccc2c(c1)OCO2
?	O=C(O)CCN1C(=O)c2ccc(NC(=O)c3cccs3)cc2C1=O
-13%	Oc1ccc2ccccc2c1/C=C\c1ccc2c(Br)cc(Br)c(O)c2n1
0%	COc1ccc(Cl)cc1N1C(=O)C2CCCN2C1c1ccccc1F (configuration not stated)
-13%	O=C(Nc1nnc(SCc2ccc(F)cc2)s1)C1CC(=O)N(Cc2ccccc2)C1 (configuration not stated)
-4%	COc1c(F)c(F)c(C(=O)Nc2ccccc2N2CCN(C(C)=O)CC2)c(F)c1F
1%	Cc1cc(Oc2nc3c(C)cccn3c(=O)c2/C=C(\C#N)S(=O)(=O)c2ccc(Cl)cc2)ccc1Cl
-23%	O=c1[nH]c(Cc2ccccc2)nc2c1oc1ccccc12
-11%	Nc1ccccc1S(N)(=O)=O
-4%	COC(=O)NNC(=O)COc1ccccc1C
-3%	O=C(CC12CC3CC(CC(C3)C1)C2)N1CCCOC1
2.5µM*	N/C(Cc1ccccc1)=N\OC(=O)c1cccc2ccccc12
-23%	COc1ccccc1Cn1c(=O)c2ccccc2n2c(Sc3ncnc4sccc34)nnc12
2%	Cc1cc(Cl)c(S(=O)(=O)N(C)C)cc1OCC(N)=O
-7%	O=C(CS(=O)(=O)Cc1ccccc1)N1CCN(c2cccc(C(F)(F)F)c2)CC1
-10%	O=C(Cc1ncc(C(F)(F)F)cc1Cl)Nc1cccc(Br)c1
-17%	CNc1nc(C)c(C(=O)OCc2ccccc2)s1
-8%	Cc1cc(NC(=O)c2c(Br)c(C)nn2C)no1
-21%	Cc1ccc(OC(F)F)c(NC(=O)Nc2cccc(C(F)(F)F)c2)c1
-19%	COc1ccc(C/C(N)=N/OC(=O)c2cccc([N+](=O)[O-])c2)cc1
28µM*	CC(=O)c1ccc(N2CCN(C(=O)c3ccc(Br)cc3)CC2)c(F)c1
-7%	OC(C#CCN1CCCC1)c1ccccc1 (configuration not stated)
i	COC(=O)c1sc2ccccc2c1NC(=O)c1ccc(S(=O)(=O)N2CC(C)CC(C)C2)cc1 (configuration not stated)
?	O=c1c2c([nH]c3ccccc13)C(=C1CCCC1)CC2
-16%	Cc1ccc(NC(=O)C(C)Sc2nc(=O)cc(N)n2-c2ccccc2)cc1 (configuration not stated)
14µM*	N/C(=N\OC(=O)c1ccc(Cl)cc1Cl)c1ccccc1
-13%	O=C(CN1CCCCC1)NC(=O)NCc1ccccc1
?	O=C(Nc1nc2n(n1)C(c1ccccc1)C=C(c1ccccc1)N2)c1ccco1 (configuration not stated)
0%	CCOC(=O)c1nnn(-c2nonc2-n2cccc2)c1CN1CCC(C(=O)OCC)CC1
-18%	O=C(CN1C(=O)C2CC=C(Cl)CC2C1=O)Nc1ccc(C(=O)O)cc1 (configuration not stated)
-6%	Cc1ccc(C#N)c(SCc2cc3c(cc2Cl)OCO3)n1
-16%	CCCC1=NN(C(=O)Cc2ccc(OC)cc2)C(O)(C(F)(F)F)C1 (configuration not stated)
-20%	CN1CCN(Cc2cc(=O)oc3cc4c(cc23)CCC4)CC1
-20%	O=C(CC1CCCCC1)c1c(O)c2ccccc2oc1=O
-6%	NNC(=O)C1CC1c1ccc(Cl)cc1 (configuration not stated)
-17%	COc1ccc(Cl)cc1NC(=S)NCCC(c1ccccc1)c1ccccc1
-7%	CCOc1ccc(/C=C2\SC(=S)N(Nc3ccccc3)C2=O)cc1OC
-7%	O=C(Nc1cc([N+](=O)[O-])ccc1F)C1CC1
-19%	O=C(Nc1ccc(O)c(-c2nc3ccccc3o2)c1)C1(c2ccc(Cl)cc2)CCCC1
-18%	Cc1cc(C)cc(CSCC(=O)N/N=C/c2ccc(OCC(=O)NCc3ccco3)cc2)c1
-8%	Cc1ccc(-c2cc(=O)[nH][nH]2)c(C)c1
-8%	Cc1csc(C(C#N)C(=O)c2ccc(S(=O)(=O)N3CCCC3)cc2)n1 (configuration not stated)
-15%	O=C1c2ccccc2C(Nc2ccc3c(c2)OCCO3)N1c1ccc(Cl)cn1 (configuration not stated)

Further entries:
HPGD inh	SMILES
-20%	Cc1cc2c(c(=O)n1Cc1cccnc1)C(c1cccs1)C(C#N)=C(N)O2 (configuration not stated)
?	CC1CCCCN1Cc1c(O)ccc2c(=O)c(-c3nc4ccccc4s3)c(N)oc12 (configuration not stated)
?	Cc1nc(NC(=O)c2ccccc2)nc2cc3c(cc12)OCO3
-18%	O=C(COC(=O)COc1ccccc1[N+](=O)[O-])Nc1ccccc1Br
-9%	O=C(c1cnccn1)N1CCC[C@@]2(CCN(C(c3ccccc3)c3ccccc3)C2)C1
?	COC(=O)c1c(NC(=O)c2ccco2)sc(C(=O)N(C)C)c1C
-11%	Nc1c(-c2ccccc2)cnn1-c1ccc(C(=O)O)cc1
-20%	CCOC(=O)C1=C(C)C2C3C(=O)N(c4cc(C)ccc4C)C(=O)C3C1(C)C1C(=O)N(c3cc(C)ccc3C)C(=O)C21 (configuration not stated)
-17%	Cc1ccc(C(=O)OCC(=O)Nc2sc3c(c2C#N)CCCCC3)cc1NC(=O)c1ccco1
-4%	Cc1ccc(NC(=O)c2ccc(N3CCOCC3)c([N+](=O)[O-])c2)cc1S(=O)(=O)N1CCOCC1
-3%	Cc1cc(NS(=O)(=O)c2ccccc2)n(-c2ccccc2)n1
-9%	COc1ccc(C2=NN(C(=O)CSc3cn(C)c4ccccc34)C(c3ccc(OC)cc3)C2)cc1 (configuration not stated)
-19%	CCOc1c(OC(C)=O)ccc(/C=C/c2ccc3cccc(OC(C)=O)c3n2)c1[N+](=O)[O-]
3%	Cn1c(C(=O)N(Cc2ccccc2)Cc2ccccn2)cc2sccc21
-14%	COc1ccc(CN2CNc3nc4ccccc4n3C2)cc1
-1%	CS(=O)(=O)N1CCCC(C(=O)NCc2cccs2)C1 (configuration not stated)
?	CCN(CCO)c1ncnc2c1sc1nc(C(C)C)c3c(c12)CC(C)(C)OC3
-16%	O=C(NC1CCCCNC1=O)c1ccc(Cl)cc1 (configuration not stated)
13µM*	COc1ccccc1-n1cnc2cc(C(=O)NCc3ccco3)ccc21
-12%	O=C(NC(=S)Nc1ccc(S(=O)(=O)Nc2nccs2)cc1)c1cccc(F)c1

Entries listed so far containing a thiophene ring, fused or not:
HPGD inh	SMILES
-6%	COc1ccc(CCN(C(=O)C(F)(F)F)C(C(=O)NC2CCCC2)c2cccs2)cc1 (configuration not stated)
-4%	CC(C)(C)OC(=O)NCCCC1=CC2=CC(=O)C(C)(OC(=O)c3cccs3)C(=O)C2=CO1 (configuration not stated)
-21%	CCOC(=O)c1c(NC(=O)C2=C(C)NC(=S)NC2c2ccc(F)cc2F)sc(C)c1C (configuration not stated)
-17%	Cc1nn(Cc2ccccc2Cl)c2sc(C(=O)NC(C)(C)C)cc12
-7%	O=C1NC(c2ccncc2)C(C(=O)c2cccs2)C(O)(C(F)(F)F)N1 (configuration not stated)
?	O=C(O)CCN1C(=O)c2ccc(NC(=O)c3cccs3)cc2C1=O
-23%	COc1ccccc1Cn1c(=O)c2ccccc2n2c(Sc3ncnc4sccc34)nnc12
i	COC(=O)c1sc2ccccc2c1NC(=O)c1ccc(S(=O)(=O)N2CC(C)CC(C)C2)cc1 (configuration not stated)
-20%	Cc1cc2c(c(=O)n1Cc1cccnc1)C(c1cccs1)C(C#N)=C(N)O2 (configuration not stated)
?	COC(=O)c1c(NC(=O)c2ccco2)sc(C(=O)N(C)C)c1C
-17%	Cc1ccc(C(=O)OCC(=O)Nc2sc3c(c2C#N)CCCCC3)cc1NC(=O)c1ccco1
3%	Cn1c(C(=O)N(Cc2ccccc2)Cc2ccccn2)cc2sccc21
-1%	CS(=O)(=O)N1CCCC(C(=O)NCc2cccs2)C1 (configuration not stated)
?	CCN(CCO)c1ncnc2c1sc1nc(C(C)C)c3c(c12)CC(C)(C)OC3
